NPR1 antag: blocks ANP-stimulated signaling of human Npr1 receptor; HEK293 hNpr1 GloSensor cGMP, ANP-stimulated luminescence; Potency, µM (titrated, usually from 46.3 µM), inactives show at the top dose activity change, negative = inhibition, hits mostly inhibitors; 1.6% of 76,000 active; active = well fitted inhibition curve with a large enough effect; inconclusive = small, poorly fitted or top-dose-only effect; inactive = no such curve, though single readings can be large or run the other way;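 note: nearly all actives have a fitted effect of over 60% in size; nearly all hits also lower the signal before the agonist is added; a reference antagonist and vehicle were the controls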
Target sequence (P16066 whole entry, looked up): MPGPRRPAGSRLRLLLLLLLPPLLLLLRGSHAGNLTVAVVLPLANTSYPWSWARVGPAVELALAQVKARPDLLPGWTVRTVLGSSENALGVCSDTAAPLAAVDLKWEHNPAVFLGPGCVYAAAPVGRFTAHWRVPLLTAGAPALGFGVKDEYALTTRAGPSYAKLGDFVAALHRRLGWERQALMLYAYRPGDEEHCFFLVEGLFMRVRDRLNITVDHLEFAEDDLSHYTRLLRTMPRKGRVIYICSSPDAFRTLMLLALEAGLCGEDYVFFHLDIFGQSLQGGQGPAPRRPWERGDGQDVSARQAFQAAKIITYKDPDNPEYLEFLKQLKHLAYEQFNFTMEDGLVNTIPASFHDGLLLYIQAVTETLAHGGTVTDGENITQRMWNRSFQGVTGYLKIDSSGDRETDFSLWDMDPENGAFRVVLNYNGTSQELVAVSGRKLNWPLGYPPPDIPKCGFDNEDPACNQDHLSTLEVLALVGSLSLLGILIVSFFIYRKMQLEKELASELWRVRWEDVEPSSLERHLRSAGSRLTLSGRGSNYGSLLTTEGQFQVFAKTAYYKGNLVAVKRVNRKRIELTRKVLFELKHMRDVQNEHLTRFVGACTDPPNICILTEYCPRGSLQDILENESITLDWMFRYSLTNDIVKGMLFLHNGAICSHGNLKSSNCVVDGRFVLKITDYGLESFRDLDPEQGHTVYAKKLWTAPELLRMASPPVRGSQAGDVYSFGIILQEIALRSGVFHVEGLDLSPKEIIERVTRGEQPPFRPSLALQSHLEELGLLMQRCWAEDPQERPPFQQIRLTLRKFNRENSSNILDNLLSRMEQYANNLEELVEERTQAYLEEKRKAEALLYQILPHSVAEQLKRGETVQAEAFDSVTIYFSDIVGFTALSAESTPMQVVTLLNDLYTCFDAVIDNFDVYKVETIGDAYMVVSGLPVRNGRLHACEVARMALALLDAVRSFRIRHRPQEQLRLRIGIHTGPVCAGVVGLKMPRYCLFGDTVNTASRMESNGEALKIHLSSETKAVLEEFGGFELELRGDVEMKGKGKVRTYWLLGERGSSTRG
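Compound pre-incubated 30 min at room temperature on GloSensor-loaded HEK293 cells stably carrying hNpr1 and the pGS-40F cGMP biosensor. Stimulation uses hNppA at 0.1 nM final; luminescence is taken at baseline and 20 min post-agonist.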
Numbers without * were called inactive; ? = inconclusive; [ ] = another dose, or the depositor's remark. % is set by controls: 0 for no effect and ±100 for the full control effect; potency is the fitted concentration of half-maximal effect. Only part of the results is shown; rates above refer to the full screens.

SMILES	NPR1 antag
c1ccc(-c2nc3c(c(N4CCNCC4)n2)CCC3)cc1	2%
O=C(C1CCC1)N1CCc2nn(Cc3ccccc3)c(=O)n2CC1	-4%
COCCc1noc([C@@H]2CN(C(=O)c3ccc(C)cc3C)C[C@H]2CO)n1	1%
Cn1nccc1CN1CCCC2(CNc3ccccc3[S+](=O)([O-])N2)C1 (centres undefined)	0%
Cn1cnnc1CCC(=O)N[C@H](c1ccccn1)C1CC(O)C1 (some centres undefined)	9%
COc1cccc(CN[C@H]2[C@H](O)[C@H](O)C[C@@H]2c2cccnc2)c1	-10%[70.6 µM]
CC(C)CN1C(=O)C(C)(C)[S+](=O)([O-])[C@@H]2CN(c3ccc(OC(F)(F)F)cc3)C[C@@H]21	8%
CS(=O)(=O)N1CCc2ccc(C(=O)Nc3ccc(Cl)c(C(F)(F)F)c3)cc21	?
COCCN(C)C[C@H]1C[C@H](CO)CN(C(=O)CN2CCc3ccccc3C2)C1	-2%
Cc1cc(F)cc(CN2CCc3nc(C(=O)NCc4ccncc4)oc3CC2)c1	?
CC(=O)NC1(C)CCN(Cc2ccccc2-c2ccc3ccccc3c2)C1 (centres undefined)	-17%[70.6 µM]
CCOCCCNCc1ccc(-c2ccccc2)o1	-2%
Cc1cc(C)cc(C(=O)N2CCCC(n3cc(-c4nc(C(C)C)no4)nn3)C2)c1 (centres undefined)	-9%
CS(=O)(=O)N1CCC(CC(=O)Nc2ccccc2)C1 (centres undefined)	12%
COc1ccc(-c2ccnc3nc(-c4cccs4)nn23)c(F)c1	2%
COCCN1CCNc2nc(COc3cccc(F)c3)n(Cc3ccccc3)c2C1=O	-9%[70.6 µM]
O=C1NC2(CCCN(C(=O)c3ccccc3)C2)Oc2ccccc21 (centres undefined)	10%[70.6 µM]
CC(C)NC(=O)C(NC(=O)c1ccc2c(c1)OCO2)C1CCN(C(=O)c2ccc(Cl)cc2)CC1 (centres undefined)	-13%
Cc1ccc(NC(=O)CN2C(=O)NC3(CCC(C)CC3)C2=O)cc1 (centres undefined)	-6%
CN1CCCC2(CCN(C(=O)CCc3ccccc3O)C2)C1=O (centres undefined)	3%
CC(C)c1nc(-c2ccc(OC3CCN(C(=O)c4n[nH]c5ccccc45)C3)cc2)no1 (centres undefined)	16µM*
COCCn1c(C)cnc1CC1CCN(C(=O)Nc2ccccc2F)C1 (centres undefined)	1%
CCCCNC(=O)CN1C(=O)NC(c2ccc(OCC)cc2)C2=C1COC2=O (centres undefined)	0%
CN(CC[C@H]1CN(C(=O)c2cccs2)CC[C@H]1CC(=O)O)c1ccccc1	5%[70.6 µM]

Given in markdown: entries from further up
| Compound | NPR1 antag |
| --- | --- |
| Cc1cc(C)cc(C(=O)N2CCCC(n3cc(-c4nc(C(C)C)no4)nn3)C2)c1 (centres undefined) | -9% |
| CS(=O)(=O)N1CCC(CC(=O)Nc2ccccc2)C1 (centres undefined) | 12% |
| COc1ccc(-c2ccnc3nc(-c4cccs4)nn23)c(F)c1 | 2% |
| COCCN1CCNc2nc(COc3cccc(F)c3)n(Cc3ccccc3)c2C1=O | -9%[70.6 µM] |
| O=C1NC2(CCCN(C(=O)c3ccccc3)C2)Oc2ccccc21 (centres undefined) | 10%[70.6 µM] |
| CC(C)NC(=O)C(NC(=O)c1ccc2c(c1)OCO2)C1CCN(C(=O)c2ccc(Cl)cc2)CC1 (centres undefined) | -13% |
| Cc1ccc(NC(=O)CN2C(=O)NC3(CCC(C)CC3)C2=O)cc1 (centres undefined) | -6% |

Going on with the list:
SMILES	NPR1 antag
CN(C)C[C@@H]1CN(c2ncccn2)C[C@H]1NC(=O)c1ccc2cc[nH]c2c1	2%
O=C(NCC1CC1)c1coc(COc2ccc3c(c2)C(c2cccc(F)c2)N(C(=O)C2CC2)CC3)n1 (centres undefined)	-24%
O=C(NC1CCCN(c2cc(-c3ccc(F)cc3)[nH]n2)C1)c1c[nH]c2ccccc12 (centres undefined)	-23%
COc1ccc(-c2cc(N3CCCC(NC(=O)c4ccc(OC)cc4OC)C3)n[nH]2)cc1 (centres undefined)	-12%
Cc1ccccc1C(=O)NC1CCN(c2cc(-c3ccc(Cl)cc3)[nH]n2)C1 (centres undefined)	-14%
O=C(c1ccncc1)N1CCC(Oc2cccc(F)c2)C1 (centres undefined)	-2%
O=C(CCC1CCCCC1)N1CC2CC(C1)[C@H]1CCCC(=O)N1C2 (some centres undefined)	6%
Cc1nc(CN2Cc3nc(-c4cc5ccccc5o4)ccc3OCC2=O)cs1	?
O=C1N(C2CCN(S(=O)(=O)c3cccnc3)CC2)C(c2ccncc2)C12CCCCC2 (centres undefined)	8%
CC(=O)Nc1cccc(C(=O)NCCc2nc3c(C)c(C)ccc3[nH]2)c1	3%
CN1CCN(c2cc(=O)c3ccnc(Nc4ccccn4)c3o2)CC1	1%[70.6 µM]
Cc1ncsc1CN1CC(Oc2cccc(C(=O)N3CCOCC3)c2)C1	14%
Clc1cc(N2CCOCC2)n2nccc2n1	6%[70.6 µM]
Cc1ccccc1CN1CCCn2nc(C)c(-c3cccnc3N3CCOCC3)c21	?
CC(=O)NCC1CCCN(C(=O)c2cc(Cn3ccc4ccccc43)[nH]n2)C1 (centres undefined)	5%
Cn1cccc1C(=O)NCC1(C)CCOCC1	-10%
COc1nccc(N2CCC(CC(=O)NCc3ccc(F)cc3Cl)CC2)n1	?
COc1ccc(CNC(=O)[C@@]23CCCC[C@H]2N(C)C(=O)CC3)cc1	7%
COc1ccc(-c2cnc([C@@H]3COCCN3C3CCCCC3)[nH]2)cc1	5%[70.6 µM]
O=C(Nc1ccc(F)cc1F)N1CCC(Oc2ncccc2C(=O)N2CCOCC2)C1 (centres undefined)	6%
CC(C)(C)c1ccc(-c2cc(C[C@H]3CNCC[C@H]3CC(=O)N3CCOCC3)no2)cc1	3%[70.6 µM]
Cc1nc(CN2Cc3nc(-c4ccc(Cl)cc4)ccc3OCC2=O)cs1	?
Cc1cc(CN2C[C@@H](CO)[C@H](NC(=O)c3ccccc3)C2)n(C)n1	5%
CN1CC(=O)N2CCN(C(=O)Cn3nnc4ccccc4c3=O)CC2C1=O (centres undefined)	10%
CCCOCCNC(=O)c1c(C)noc1-c1ccc2c(c1)OCO2	-8%
CN(C/C=C/c1ccccc1)c1cc(C2CC(O)C2)nc(N)n1 (centres undefined)	13µM*
CCN1C(=O)CCc2cc(NC(=O)c3ccc(OC(F)(F)F)cc3)ccc21	-2%
Cc1nc2scc(CC(=O)NC3CCCCC3)n2c(=O)c1-c1cc(C)n(-c2ccccc2F)n1	-1%
CCc1cccc2c(C(CC(=O)N3CCC(C)CC3)c3cccc(C)c3)c[nH]c12 (centres undefined)	3%
O=C(NC1CCOC2(CCOCC2)C1)c1ccc(-c2cnco2)cc1 (centres undefined)	-1%
O=C(C1CCCC1)N1CCC(Oc2cccnc2)C1 (centres undefined)	8%
Cc1noc2c(NCc3cnccn3)cc(-c3ccccc3)nc12	8%[70.6 µM]
O=C(Nc1ccc(Cl)cc1)N1CCn2c(nn(-c3ccc(C(F)(F)F)cc3)c2=O)C1	?
O=C(Nc1ccc(F)cc1Cl)c1cc2n(n1)CC(c1ccc3c(c1)OCO3)OC2 (centres undefined)	?
c1coc(CN[C@H]2CO[C@H]3[C@@H]2OC[C@@H]3n2nnnc2Oc2ccc(-n3ccnc3)cc2)c1	5%
O=C(c1cccs1)N1CCC2(CC1)NC(=O)N(Cc1ccccc1)C2=O	-24%
O=C(NCc1ccc(F)cc1)C1COC2(CCCCC2)N1C(=O)c1ccccc1 (centres undefined)	2%
Cc1ccccc1C(=O)N1CCN(c2cc(-c3ccc(Cl)cc3)[nH]n2)CC1	11µM*
COCc1ccc(C(=O)NCc2cc(C)cc3c(C)c(C)[nH]c23)o1	-1%
COCCN1CCCC2(CCN(C(=O)c3cc(C)[nH]n3)C2)C1=O (centres undefined)	0%
O=C(Cc1ccccc1)N1CC(c2nnc(-c3ccncc3)o2)C2(CCOCC2)C1 (centres undefined)	3%
c1csc(CN2CC[C@H](c3nc4ccccc4[nH]3)C2)c1	-28%[70.6 µM]
NC(=O)c1cccc(-c2cc3c(cn2)CN(Cc2ccccc2)CCN3)c1	-2%[70.6 µM]
CNC(=O)N1CCC(C2CCN(C(=O)c3ccc(Br)cc3)C2)CC1 (centres undefined)	1%
N#Cc1cccc(C(=O)NC2CCN(c3cc(-c4ccc(F)cc4)[nH]n3)CC2)c1	-23%
C#CCN(C)CC[C@@H]1CC[C@H](O)[C@@H](C(=O)NC(C)C)O1	1%[70.6 µM]
NC(=O)CNC(=O)C1=C[C@@H](NC(=O)Nc2ccccc2Br)[C@@H](O)[C@H](O)C1	6%[70.6 µM]
COc1ccc(-c2cc(C[C@H]3CNCC[C@H]3CC(=O)NCc3cccnc3)no2)cc1	-9%[70.6 µM]
COc1ccc(-c2noc(-c3cccn3CC(=O)Nc3c(C)cccc3Cl)n2)cc1F	-14%
CCn1ccnc1CN(C)Cc1cn(C)nc1-c1ccc(Oc2ccccc2)cc1	-8%
CS(=O)(=O)NCCC(=O)N1CCC2(CC1)[C@H](O)C[C@@H]2OCCO	11%
CCCNC(=O)[C@@H]1CCCN1[C@@H](C(=O)NC)c1ccccc1	7%[70.6 µM]
CC(=O)N1CCC(NC[C@@H]2C=C(C)[C@H](Cc3nc4ccc(Cl)cc4[nH]3)C[C@H]2C(C)C)CC1	1%
O=C(NCc1ccncc1)c1nc2c(o1)CCN(Cc1ccccc1F)CC2	?
O=C(NCc1nnc2cc(-c3nc(C4CC4)no3)ccn12)c1ccc2[nH]ccc2c1	-2%
COc1cccc(CNC(=O)[C@@H]2C[C@@H](O)CN2C2CCN(C(=O)Cc3cccc(F)c3)CC2)c1	1%
CC(C)C[C@@H](NC(=O)C1=C[C@@H](NC(=O)c2ccc(F)c(Cl)c2)[C@@H](O)[C@H](O)C1)C(N)=O	3%
CS(=O)(=O)Nc1ccc(C2(C(=O)NCc3cccs3)CCCCC2)cc1	-6%
COCc1cccc(-c2n[nH]c3c2CC(=O)N(Cc2ccccc2)C3)c1	-10%[70.6 µM]
O=C1CCN(C(=O)c2cccnc2)CCCC(c2nc(-c3ccccc3)no2)CCN1 (centres undefined)	-1%

Part of the list above, bar-delimited:
smiles | NPR1 antag
CS(=O)(=O)NCCC(=O)N1CCC2(CC1)[C@H](O)C[C@@H]2OCCO | 11%
CCn1ccnc1CN(C)Cc1cn(C)nc1-c1ccc(Oc2ccccc2)cc1 | -8%

Sorted by number of heavy atoms (rising): part of the list above.
SMILES	NPR1 antag
CS(=O)(=O)Nc1ccc(C2(C(=O)NCc3cccs3)CCCCC2)cc1	-6%
O=C(NCc1nnc2cc(-c3nc(C4CC4)no3)ccn12)c1ccc2[nH]ccc2c1	-2%
CC(=O)N1CCC(NC[C@@H]2C=C(C)[C@H](Cc3nc4ccc(Cl)cc4[nH]3)C[C@H]2C(C)C)CC1	1%
COc1cccc(CNC(=O)[C@@H]2C[C@@H](O)CN2C2CCN(C(=O)Cc3cccc(F)c3)CC2)c1	1%

Following part:
SMILES	NPR1 antag
CC(C)c1ccc(CC(=O)N2CCCc3ncc(C(=O)Nc4ccc5[nH]ccc5c4)cc32)cc1	-6%
CC(C)[C@@H]1CN(C(=O)CCn2ccc(=O)[nH]c2=O)C[C@H]1NS(C)(=O)=O	1%
COCCOC1CCOC2(CCN(C(=O)COc3ccccc3)CC2)C1 (centres undefined)	-7%
CCOc1ccc2c(n1)CCN(C(=O)c1cc(OC)cc(OC)c1)C2	0%
CCOc1ccccc1NC(=O)N1CCC(Cc2noc(C3CCOCC3)n2)C1 (centres undefined)	-4%
N[C@H](Cc1ccccc1)C(=O)N1CCC2(CC1)Nc1ccccc1NC2=O	6%
O=C1CN(C(=O)c2cccc(C(F)(F)F)c2)CC(OCc2cccnc2)CN1CC1CCOCC1 (centres undefined)	4%
CCn1ncc(CN2CCC(C3CCN(C)CC3)C2)c1C (centres undefined)	4%
O=C(NC1CCc2n[nH]c(=O)n2CC1)c1n[nH]c2ccccc12 (centres undefined)	0%
CC(=O)NC[C@H]1O[C@H](Cc2cc(CN3CCN(c4ccccc4)CC3)on2)CC[C@@H]1O	8%[70.6 µM]
COc1ccc(C(=O)Nc2cccc(-c3nnc4n3CCCC4)c2)cn1	1%
CNC(=O)[C@@H]1C[C@H](Oc2cccnc2)CN1C(=O)c1ccc(OC)cc1OC	-5%
COc1cccc(CN2CCNC(=O)C2CC(=O)NCc2ccon2)c1OC (centres undefined)	3%
CN(C)C1CCN(C(=O)C2(N(C)CCc3ccccc3)Cc3ccccc3C2)C1 (centres undefined)	2%
Cc1ccc(C)c(C(=O)N2CCC(Oc3nccnc3N(C)C)C2)c1 (centres undefined)	-10%
CCn1cc(CN2CCN(C(=O)c3ccco3)CC2)ccc1=O	-11%
N#Cc1cccc(-c2cn3c(n2)N(C(=O)c2ccsc2)CCC3)c1	-11%
Cc1ccccc1C(=O)N1CCc2nc(-c3ccccc3)nc(-c3ccc(Cl)cc3)c2C1	-2%
Cc1nc(N2CCC(C(=O)NCc3ccccc3Cl)CC2)cc(C(F)(F)F)n1	?
O=C(c1nccc2ccccc12)N1CCc2c(nc(-c3ccccc3)[nH]c2=O)C1	-4%
COC(=O)Cn1nc2n(c1=O)CCN(Cc1ccccc1C)C2=O	2%
CC(C)C1CN(C(=O)c2ccc(F)cn2)CCC(=O)N1Cc1ccc(F)cc1 (centres undefined)	2%
COc1ccc(C2Cn3nnc(-c4noc(C5CCCCC5)n4)c3CO2)cc1 (centres undefined)	-1%
O=C1NC2(CN(Cc3ccc(C(F)(F)F)cc3)C2)Oc2ccccc21	-17%
CCNC(=O)N1CCC(Cc2ccc(C(=O)O)cc2)CC1	6%
CCOc1cc(=O)n2c(c1C(=O)Nc1ccc(OC)cc1OC)CCCC2	-3%

Screening data (PubChem)
